Source: PubChem (PCMD)
Calb biofilm kill – mixtures killing C. albicans biofilm | C. albicans biofilm persisters + clotrimazole, fluorescence viability; primary screen in compound mixtures of four per well | inhibition, % at 7.6 µM | 120,000 tested, 0.02% active | AID 1242;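 active = inhibition above 30.3% in the primary screen of four-compound pools, then above 30% when the compound was retested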;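 note: compounds exposed to preformed 24 h biofilms for 48 h; the number belongs to the whole pool; some results filed as inactive read as strong as hits; inactives centre near 12; 0% = biofilm with clotrimazole alone and 100% = kill control; retested singly at about 60 µM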
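Test system: C. albicans CAF4-2 wild-type biofilms; buffer or medium: RPMI/MOPS medium, pH 7.0; schedule: 24 h biofilm formation, then 48 h compound exposure, 37 °C; detection: Alamar Blue fluorescence; measure: percent inhibition of biofilm viability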
* hit, by the source's call.

structure | Calb biofilm kill
FC(F)Oc1cccc(NC(=S)N2CCN(c3ccccn3)CC2)c1 | 7
CCc1nnc(NC(=O)CSc2nnc(CNc3ccc(C)cc3)n2C)s1 | 24
O=C(CSc1nnc(NC(=O)c2ccccc2C(=O)O)s1)Nc1ccccc1Cl | 10
Cc1nn(C)c(C)c1/C=N/NC(=O)CCn1nc(C)c([N+](=O)[O-])c1C | 7
CCC(C)NCC(=O)Nc1ccc(S(N)(=O)=O)cc1 (stereo not drawn) | 24
Cc1cc(Cl)nc2ccc(Cc3ccc4nc(Cl)cc(C)c4c3)cc12 | 20
Cc1cc(Nc2ccc3c(c2)OCCO3)c2ccccc2n1 | 22
CS(=O)(=O)N1N=C(c2cccs2)CC1c1ccc(F)cc1 (stereo not drawn) | -4
O=C(Nc1cc(Cl)cc(Cl)c1)C(NCC1CCCO1)c1ccccc1 (stereo not drawn) | 6
Cc1ccc(N2CCCn3c2cc(C)c(C#N)c3=O)cc1Cl | 14
Cc1[nH]c2ccc(Br)cc2c(=S)c1C/C=C/Cl | 29
O=S(=O)(C(=CNc1ccccc1)S(=O)(=O)c1ccccc1)c1ccccc1 | 19
O=C(NC(=S)Nc1ccccc1)c1cncc(C#Cc2ccccc2)c1 | 10
Cc1ccc(S(=O)(=O)N2C(=O)c3cccc4cccc2c34)cc1 | 9
CCOC(=O)c1ccc(N=C2SC(C(=O)NCCc3ccccc3)CC(=O)N2C)cc1 (stereo not drawn) | -9
CCCCN(C)C(=O)c1cc2cc([N+](=O)[O-])cc(OC)c2oc1=O | 22
CC(C)N1C(=O)CCC1C(=O)N1CCC(Cc2ccccc2)CC1 (stereo not drawn) | -8
COC(=O)c1sccc1N/N=C/c1ccc(OC)c(OC)c1OC | 12
COc1ccc(N(CC(=O)Nc2cc(C)cc(C)c2)S(=O)(=O)c2ccccc2[N+](=O)[O-])c(OC)c1 | 18
COC(=O)c1ccc(OC(=O)CCc2cc(OC)c(OC)c(OC)c2)cc1 | 3

(continued)
structure | Calb biofilm kill
COc1ccc(CNC(=O)C2CC(c3ccc(C(F)(F)F)cc3)=NO2)cc1 (stereo not drawn) | 17
O=C1c2nccnc2C(=O)N1c1ccc(F)cc1 | 2
COc1ccccc1-c1c(C#N)c(N)nc2c1CCC2 | 29
CCN1C(=O)C2(C(C(=O)c3ccc(C)o3)=C(O)C(=O)N2CCCN(C)C)c2ccccc21 (stereo not drawn) | 21
CC(=O)Nc1ccc(Nc2c([N+](=O)[O-])c(=O)n(-c3ccccc3)c3ccccc23)cc1 | 20
NC(N)=N/N=C/c1ccccc1OC(F)F | 15
O=C1C=C(NC(=O)Nc2ccc(Cl)c(Cl)c2)CCC1 | 7
COc1cccc(CN(C)C(=O)Nc2cccc(C(F)(F)F)c2)c1OC | 17
CCn1nc(C)c(Br)c1C(=O)Sc1ccccc1Cl | 9
CCC1=C/C(=C/c2sc3ccccc3[n+]2CC)CC(C)(C)C1 | 14
COCCN(C(=O)/C=C/c1ccccc1)c1c(N)n(Cc2ccccc2)c(=O)[nH]c1=O | 2
CC(C)NC(=O)NC(=O)COC(=O)Cc1c(F)cccc1Cl | 20
Cc1ccc(-c2noc(CN(C)C(=O)Nc3ccc(F)cc3)n2)cc1 | 14
O=C1CN2NC(=S)N(c3ccc(Cl)cc3)C2=CN1c1ccc(Cl)cc1 | -20
CCCC(=O)NC(=S)N1CCN(c2ccc([N+](=O)[O-])cc2)CC1 | 14
O=c1[nH]c(=S)[nH]c(O)c1N=Nc1ccc(-c2ccccc2)cc1[N+](=O)[O-] | 12
COc1ccc(C2C3CCCCC3(O)CCN2C(=O)c2cccs2)cc1 (stereo not drawn) | 22
CCc1cccc(CC)c1N1C(=O)c2cc(N3CCOCC3)c([N+](=O)[O-])cc2C1=O | 13
Cc1nonc1OCCNCCNc1ccc([N+](=O)[O-])cc1Cl | 18
CCOC(=O)c1cc2c(ccn2C)n1Cc1ccc(Cl)cc1 | 14

Next records follow.
structure | Calb biofilm kill
COC(=O)c1ccc(Cl)c(NC(=O)CN(c2ccccc2)S(=O)(=O)c2ccc(OC)cc2)c1 | 18
CCCCC(CCC(=O)Nc1cccc([N+](=O)[O-])c1)C(=O)O (stereo not drawn) | 28
N#C/C(=C(/O)COc1ccc(Br)cc1)c1nnc2n1CCCCC2 | 9
O=C(NC(=O)c1ccccc1N1CCCCC1)Nc1ccc(Br)cc1 | 1
CC(=O)CC(C)(C)S(=O)(=O)c1ccc(NC(C)=O)cc1 | 16
Cc1cc(N)n2nc(C)c(-c3ccc(Cl)cc3)c2n1 | 18
CC(=O)c1cnc(N(C)C)s1 | 14
CCNC(=O)NC(=O)C(C)OC(=O)c1ccc(SC)cc1OC (stereo not drawn) | 12
CCC(C)[C@H](NC(=O)NCCC1=CCCCC1)C(=O)O (stereo partly drawn) | 13
CCOC(=O)c1[nH]cnc1C(=O)Nc1ccccc1 | 7
O=C(Nc1cccc(S(=O)(=O)Nc2ccc(Cl)cc2)c1)c1ccc[n+]([O-])c1 | 15
O=C(NCCNCc1ccccn1)c1ccco1 | 10
O=C(CSc1n[nH]c(-c2ccncc2)n1)c1cccc([N+](=O)[O-])c1 | 10
CCOC(=O)c1sc(=S)n(C)c1NC(=O)c1ccc(OC)cc1 | 20
Cc1ccccc1Nc1nc(N)nc(CN(C)Cc2ccccc2Cl)n1 | 13
CC1C/C(=C/c2cccs2)C(=O)/C(=C/c2cccs2)C1 (stereo not drawn) | 13
C#CCNc1ccc(C(=O)OCC)cc1 | 15
CCCCn1c(=O)c(CC(C)=O)nc2ccccc21 | 17
COC(=O)C(=Cc1ccccc1[N+](=O)[O-])C(=O)OC | 16
CN(C)c1ccc(C=Nc2ccc(N(C)C)cc2)cc1 | 9

(further entries)
structure | Calb biofilm kill
COc1ccccc1NS(=O)(=O)c1cc(NC(=O)c2cccs2)ccc1N1CCCC1 | 15
Cc1cc(Nc2cc(Cl)cc(Cl)c2)nc(N)n1 | 10
C=CCOc1c(OC)cc(/C=N/Nc2cccc(C(=O)O)c2)c(Br)c1Br | 17
COc1ccccc1/C=C/C=N/n1c(-c2cc(C)[nH]n2)n[nH]c1=S | 13
O=C1CCC(=O)N1c1ccc(-c2nc3ccccc3s2)cc1 | 13
COc1ccc(NC(=S)N2CCOCC2)c(OC)c1 | 12
O=Cc1cccn1-c1nccc(-c2ccco2)n1 | -4
CCc1ccc(CN2CCCC(CNS(=O)(=O)c3ccc(OC)cc3)C2)cc1 (stereo not drawn) | 13
Cc1c(/C=N/Nc2nc3ccccc3[nH]2)c2ccccc2n1C | 16
COc1ccc(CNc2ncnc3c2[nH]c2cc(OC)c(OC)cc23)cc1 | 28
N#Cc1ccc(C(=O)N2CCN(S(=O)(=O)c3ccc(Br)s3)CC2)cc1 | 16
CCn1cc(C2C(C(=O)Nc3ccc(Br)cn3)=C(C)NC3=C2C(=O)CCC3)c(C)n1 (stereo not drawn) | 8
CCN1CCN(c2nc(-c3ccccc3)nc3ccccc23)CC1 | 13
COc1ccc(CNc2nc(S(=O)(=O)c3ccccc3)c(Cl)s2)cc1OC | 9
CCOC(=O)C1=NN(c2ccccc2C)C2=NC(C)=C(C(=O)OC)C(c3cccc(OC)c3)N12 (stereo not drawn) | 1
COc1ccc(NC(=O)CCN2C(=O)c3ccccc3S2(=O)=O)c(OC)c1 | 18
COc1ccc(Cc2noc(CN(C)CC(O)c3ccccc3)n2)cc1OC (stereo not drawn) | 17
CCCOC(=O)c1ccc(Oc2coc3c(CN(CC)CC)c(O)ccc3c2=O)cc1 | 18
C=CCn1c(=NC(=O)CC)n(C)c2ccccc21 | 20
CCO[C@H]1OC(C(=O)Nc2ccccc2)=C[C@@H](C)[C@@H]1CCCO | 10

Additional structures follow:
Compound	Calb biofilm kill
COc1ccc2[nH]c(=O)c(CN(Cc3ccccc3)C(=S)NCC3CCCO3)cc2c1 (stereo not drawn)	13
CCN1/C(=C2\SC(=S)N(Cc3ccccc3)C2=O)Sc2ccccc21	7
O=C(CCC(=O)N1CCCC1)Nc1ccc([N+](=O)[O-])cc1	12
Cc1ccc(-c2cc(C(=O)Nc3ccccn3)c3ccccc3n2)o1	7
O=C(O)c1cc(-c2ccc(/C=N/NC(=S)Nc3ccccc3)o2)ccc1Cl	5
COCCn1c(SCC(=O)Nc2cccc(C)n2)nnc1-c1ccco1	8
CCOc1ccc(C(=O)NC(=S)Nc2ccccc2OC)cc1[N+](=O)[O-]	6
CC(=O)Nc1ccc(Nc2nc(-c3ccccc3)nc3ccccc23)cc1	11
COc1ccc(NC(=O)CCCN2C(=O)/C(=C\c3ccco3)SC2=S)cc1	16
Cc1nn(CCC(=O)NNC(=S)Nc2ccc(F)cc2)c(C)c1[N+](=O)[O-]	20

Additional structures
Compound	Calb biofilm kill
Nc1ccc(S(=O)(=O)Nc2ccnn2-c2ccccc2)cc1	26
COC(=O)c1cccc(C23CC4(C2)[C@H](CN(Cc2ccc(C(F)(F)F)cc2)[C@@H]4c2ccccc2)C3c2ccc(C(F)(F)F)cc2)c1 (stereo partly drawn)	19
O=S(=O)(c1cccc2cccnc12)N1CCN(c2ccc(F)cc2)CC1	24
O=C(NNC(=S)Nc1ccccc1)c1cc(-c2cccnc2)nc2ccccc12	34
FC(F)c1nnc2ccc(Cl)nn12	6
CC(=O)OC1CCC2(C)C(=CCC3C2CCC2(C)C3CC3OC4(CCC(C)CN4)C(C)C32)C1 (stereo not drawn)	5
CCOC(=O)CC1CCCCN1Cc1cn(C)nc1-c1ccc2c(c1)OCCO2 (stereo not drawn)	7
Cc1ccc(OC(=O)CCN2C(=O)c3ccccc3C2=O)cc1C	14
CC1CC(C)(C)NC(=S)N1CCCC(=O)N1CCN(c2ccccc2F)CC1 (stereo not drawn)	16
Cc1ccc(S(=O)(=O)N/N=C/c2cccc3c2OCCO3)cc1	21

Continued:
Compound	Calb biofilm kill
CN1CCN(CC(=O)Nc2ccccc2Sc2ccccc2)CC1	6
Cc1ccc(C(=O)NCC(=O)OCC(=O)c2ccc3c(c2)NC(=O)CO3)cc1C	1
COc1ccc(SC[C@H](Cc2ccccc2)N2CCN(C)CCC2=O)cc1	17
CCOc1ccc(OCCSc2nc3ccccc3[nH]2)cc1	12
CCCCN(C)C(=S)Nc1ccc2nc3n(c(=O)c2c1)CCCCC3	9
O=C(C1=C[C@@H](C2CCCCC2)C[C@@H](OCCCCO)O1)N1CCN(Cc2ccccc2)CC1	5
Cn1c(=O)c2c(ncn2CC(=O)N/N=C/c2ccc(Br)s2)n(C)c1=O	19
Cc1cc2nc3c(=O)n(CCc4ccccc4)c(=O)[nH]c3nc2cc1N	12
Cc1cccc(Nc2nnc(SCC(=O)NC3CCCc4ccccc43)s2)c1 (stereo not drawn)	16
CC(C)(C)c1nc(NC(=O)Nc2ccccc2)sc1Br	6

Next section.
Compound	Calb biofilm kill
COc1cc(OC)c(/C=N/NC(=O)COc2cccc3cccnc23)c(OC)c1	35
O=C(c1cc(F)ccc1F)C1CCCN(Cc2cccn2-c2ccccn2)C1 (stereo not drawn)	4
CC(=O)Nc1sc2c(c1C(N)=O)CCC2	16
COc1ccccc1Nc1c([N+](=O)[O-])cncc1[N+](=O)[O-]	25
Cc1cc(C(=O)NC2CC2)c2ccccc2n1	16
Cc1ccc(Nc2ncnc3c2nnn3Cc2ccccc2)cc1	16
O=C(CCNC(=O)c1ccccc1Cl)Nc1cc(S(=O)(=O)N2CCOCC2)ccc1N1CCOCC1	14
CCOC1CCc2c(C)nc(N)nc2S1 (stereo not drawn)	2
CCN(CC)S(=O)(=O)c1ccc(N2C(=O)CC2(/C=C/c2ccccc2)C(=O)NC2CCCC2)cc1 (stereo not drawn)	5
O=C(NC1CC1)C1=C[C@@H](c2ccccc2)C[C@@H](OCc2ccc(CO)cc2)O1	16

The listing continues:
Compound	Calb biofilm kill
O=C(CSc1ccccc1)Nc1ccccc1C(=O)N1CCCC1	22
c1ccc(CNCCC(Cc2ccccc2)c2ccco2)cc1 (stereo not drawn)	30
Cn1c(=O)c(C(=O)COc2ccc(F)cc2Cl)c(N)n(Cc2ccccc2)c1=O	-1
CC(C)C(=O)Nc1cc(S(=O)(=O)Nc2ccc(Cl)cc2)ccc1Cl	19
N#CCC(=O)N/N=C/c1cn(Cc2ccc(Cl)c(Cl)c2)c2ccccc12	18
Cc1cc(C)c(S(=O)(=O)NCC(=O)NCc2ccco2)c(C)c1	20
Cc1cccc(C)c1NC(=O)NCCSc1snnc1C	4
O=C1OCC2=C1C(c1ccc(Cl)cc1)CC(=O)N2c1ccc(F)cc1 (stereo not drawn)	13
CC(=O)NCC(=O)OC(C(=O)c1ccccc1)c1ccc(Cl)cc1 (stereo not drawn)	21
COc1ccc(NC(=S)N/C(=N/CS(=O)(=O)c2ccccc2)c2ccccc2)cc1	11
Cc1nc2ccccc2nc1OCc1ccccc1	7
N=C(N)Sc1nc(N2CCCCC2)nc(N2CCCCC2)n1	3

An excerpt; rates above refer to the full screens.
